Bioassay records (PubChem)
ugtP null kill: growth inhibition of S. aureus ugtP deletion strain; growth inhibition, % (concentration not given with the values); S. aureus RN4220 ugtP deletion, OD600 growth, 16 h; some inactives read as strong as hits; 330,000 tested, 0.54% active;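 active means z-score under -3 and OD600 up to 0.15 on both plates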;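 further: plate controls were untreated wells for no effect and antibiotic for full effect; wells of about 80 µL received 100 nL stock; the first replicate is given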
Sa RN4220 lethal: S. aureus RN4220 growth inhibition; OD600, 16 h; inhibition, % (no concentration beside the values); 330,000 tested, 0.33% active; AID 1259311;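 active means z-score of -3 or lower and OD600 up to 0.18 on both plates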;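 further: plate controls were untreated cells for no effect and reference antibiotic for full effect; stock transfer was 100 nL into about 80 µL; one replicate is shown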
PrP UTR inh: suppresses PrP 5' UTR mRNA reporter expression | AID 488862 | cell-based PrP 5' UTR mRNA reporter, plate reader | 340,000 tested, 0.35% active | inhibition, % (concentration not given with the values);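 active means every replicate at 50% or more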;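 further: 0 = median of the neutral control wells; tested in H4 reporter cells; numbers are from one replicate; inactives centre near -14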
Bead autofluor: compound fluorescence in toxin protease inhibitor counterscreen | compound autofluorescence counterscreen, microsphere flow cytometry; stronger effect = higher value | fluorescence intensity (no concentration beside the values) | 360,000 tested, 3.1% active | AID 624483;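 active means at least 3 SD above the mean of all compounds, about 16000 in these data; inconclusive means too few beads counted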;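 further: 100 nL of 1 mM stock went into each well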
BJeLR lethal: BJeLR cell viability loss. BJeLR (HRASV12) viability, CellTiter-Glo ATP luminescence, 48 h; reference of the scale not given here. inhibition, % (test concentration not listed). 300,000 tested, 0.17% active. AID 1554;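 active means replicate mean above 50%; inconclusive means above 50% but judged a plate artefact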;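 further: 50 nL library stock added to about 25 µL; numbers are from one replicate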
Mtb hypoxia rep: Mtb hypoxia fluorescent reporter inhibition; M. tuberculosis hypoxia-regulated fluorescent reporter, fluorescence; fluorescence inhibition, % (no concentration beside the values); 300,000 tested, 0.1% active; AID 1159583;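 active means 35 to 45% if threefold the growth effect, above 45% if 1.5-fold the growth effect; inactive means the rest, general growth blockers included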;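 further: wells of about 50 µL received 100 nL stock; 0% = vehicle wells and 100% = reference inhibitor wells; whole bacteria with a GFP reporter of the hypoxia response; strong numbers were not always called active; many hits fall short of the cut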
Mtb hypoxia rep growth: also measured in Mtb hypoxia rep; calls as there; growth inhibition, %; measured here: M. tuberculosis growth (absorbance);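 0% = vehicle and 100% = reference antibiotic; read after six days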
Numbers without * were called inactive.

Results for C=C(Br)Cn1c(CCC)nc2ccccc21 ?
ugtP null kill: -4; Sa RN4220 lethal: -8.2; PrP UTR inh: -17; Bead autofluor: 2917; BJeLR lethal: 1; Mtb hypoxia rep: 15; Mtb hypoxia rep growth: 10

How did Cc1cccc(OCCn2cccc2/C=C2/C(=O)NC(=O)N(Cc3ccco3)C2=O)c1 do in these assays?
ugtP null kill: 0; Sa RN4220 lethal: 4.4; Bead autofluor: 3470; BJeLR lethal: -11; Mtb hypoxia rep: 1; Mtb hypoxia rep growth: 3

How did O=C(CCN1C(=O)c2ccccc2C1=O)C1=NN[C@@H]2C(=O)N(c3ccc4c(c3)OCCO4)C(=O)[C@H]12 do in these assays?
ugtP null kill: 7; Sa RN4220 lethal: 3.5; Bead autofluor: 4459; BJeLR lethal: 0; Mtb hypoxia rep: -6; Mtb hypoxia rep growth: -5

Results for COc1cccc(-c2csc3nc[nH]c(=O)c23)c1 ?
ugtP null kill: 4; Sa RN4220 lethal: 6.8; PrP UTR inh: 13; Bead autofluor: 6225; BJeLR lethal: -9; Mtb hypoxia rep: 0; Mtb hypoxia rep growth: 8

What do the screens show for `CN(c1ccc(C(=O)N2CCN(c3ccc(F)cc3)CC2)cc1)S(C)(=O)=O`?
ugtP null kill: 3; Sa RN4220 lethal: 4.8; PrP UTR inh: -11; Bead autofluor: 4274; BJeLR lethal: -1

What do the screens show for `COc1ccc(Cl)cc1NC(=O)c1ccccc1C`?
ugtP null kill: -1; Sa RN4220 lethal: -9.6; PrP UTR inh: -8; Bead autofluor: 3065; BJeLR lethal: -9; Mtb hypoxia rep: 4; Mtb hypoxia rep growth: 3

Results for COCc1ccc(-c2c(-c3ccc(OC)cc3)oc(=O)c3cc(OC)c(OC)cc23)cc1 ?
ugtP null kill: 15; Sa RN4220 lethal: 2.1; PrP UTR inh: -43; Bead autofluor: 2968; Mtb hypoxia rep: -3; Mtb hypoxia rep growth: 3

How did Cc1cc(C)c(NC(=S)NCCCSC2CCCCC2)c(C)c1 do in these assays?
ugtP null kill: 1; Sa RN4220 lethal: 0.9; PrP UTR inh: -2; Bead autofluor: 5014; BJeLR lethal: -2; Mtb hypoxia rep: 5; Mtb hypoxia rep growth: -6

Results for CN(Cc1ccc(F)cc1)C(=O)c1cc(COc2ccc(-n3cncn3)cc2)on1 ?
ugtP null kill: 11; Sa RN4220 lethal: 2.3; PrP UTR inh: -15; Bead autofluor: 5392; BJeLR lethal: -2; Mtb hypoxia rep: 20; Mtb hypoxia rep growth: 10

How did Cc1ccc(C)c(NC(=O)COC(=O)c2ccc(S(=O)(=O)N3CCCCC3)cc2)c1 do in these assays?
ugtP null kill: 7; Sa RN4220 lethal: 6.3; PrP UTR inh: 4; Bead autofluor: 3719; Mtb hypoxia rep: 3; Mtb hypoxia rep growth: 8

How did CCOP(=O)(OCC)c1nc(/C=C/c2ccccc2)oc1NCc1ccc(OC)cc1 do in these assays?
ugtP null kill: -21; Sa RN4220 lethal: 0.2; PrP UTR inh: 7; Bead autofluor: 24914*; BJeLR lethal: -8; Mtb hypoxia rep: -18; Mtb hypoxia rep growth: -5

How did CN(C)C(CNc1ccc(C(F)(F)F)cn1)c1ccccc1 (centres undefined) do in these assays?
ugtP null kill: 3; Sa RN4220 lethal: -0.4; PrP UTR inh: -23; Bead autofluor: 5903; BJeLR lethal: -5; Mtb hypoxia rep: 5; Mtb hypoxia rep growth: 3

What do the screens show for `COc1cccc(/C=N/Nc2nc(Nc3ccccc3)nc(-n3nc(C)cc3C)n2)c1O`?
PrP UTR inh: 19; Bead autofluor: 2722; BJeLR lethal: -5

What do the screens show for `COc1cc(NC(=O)C2CC(=O)N(Cc3ccco3)C2)cc(OC)c1` (centres undefined)?
ugtP null kill: 0; Sa RN4220 lethal: 1.9; PrP UTR inh: -14; Bead autofluor: inconclusive; BJeLR lethal: 1; Mtb hypoxia rep: 9; Mtb hypoxia rep growth: -2

Results for CCCn1c(=N)n(CC(=O)c2ccc(Cl)cc2)c2ccccc21 ?
ugtP null kill: -10; Sa RN4220 lethal: 0.4; PrP UTR inh: -14; Bead autofluor: 4003; BJeLR lethal: 2; Mtb hypoxia rep: 6; Mtb hypoxia rep growth: 8

What do the screens show for `O=c1c2ccccc2nnn1COc1cccc(Cl)c1`?
ugtP null kill: 4; Sa RN4220 lethal: 3.0; PrP UTR inh: -82; Bead autofluor: 4697; BJeLR lethal: 7; Mtb hypoxia rep: 10; Mtb hypoxia rep growth: 27

Results for CC(c1ccncn1)N(C)Cc1nc(Cc2ccccc2F)no1 (centres undefined) ?
ugtP null kill: 1; Sa RN4220 lethal: 3.3; PrP UTR inh: 0; Bead autofluor: 3375; BJeLR lethal: 3; Mtb hypoxia rep: 14; Mtb hypoxia rep growth: 7

How did COc1ccc(/C=C(/NC(=O)c2ccccc2)C(=O)N2CCOCC2)cc1OC do in these assays?
ugtP null kill: 2; Sa RN4220 lethal: 0.4; PrP UTR inh: -17; Bead autofluor: 3648; BJeLR lethal: -8; Mtb hypoxia rep: 8; Mtb hypoxia rep growth: 5

What do the screens show for `CCCCOc1ccc(C2/C(=C(\O)c3ccc4c(c3)OCCO4)C(=O)C(=O)N2CCCN2CCOCC2)cc1` (centres undefined)?
ugtP null kill: 1; Sa RN4220 lethal: 1.2; PrP UTR inh: -15; BJeLR lethal: 8; Mtb hypoxia rep: -2; Mtb hypoxia rep growth: -4

How did O=C(Cc1ccccc1)NC1CCSc2ccccc21 (centres undefined) do in these assays?
ugtP null kill: 12; Sa RN4220 lethal: -1.3; PrP UTR inh: -30; Bead autofluor: 6133; BJeLR lethal: -8; Mtb hypoxia rep: 19; Mtb hypoxia rep growth: 8

How did COC(=O)c1c(NC(NC(=O)C(C)C)C(Cl)(Cl)Cl)sc2c1CCC2 (centres undefined) do in these assays?
ugtP null kill: -5; Sa RN4220 lethal: 12; PrP UTR inh: -19; Bead autofluor: 2348; BJeLR lethal: 7; Mtb hypoxia rep: 3; Mtb hypoxia rep growth: -2

Results for COc1ccc(C2(C(=O)N3CCOCC3)CCCC2)cc1 ?
ugtP null kill: 1; Sa RN4220 lethal: -12; PrP UTR inh: -7; Bead autofluor: 2464; BJeLR lethal: 0; Mtb hypoxia rep: 11; Mtb hypoxia rep growth: 7

Results for COc1cc(OC)c(NC(=O)CCc2nc(-c3ccc(C)cc3)no2)cc1Cl ?
ugtP null kill: -1; Sa RN4220 lethal: -8.8; PrP UTR inh: -3; Bead autofluor: 2280; BJeLR lethal: 10

How did CNC(C(=O)c1ccccc1)C(OC(C)C)c1ccc(Cl)cc1 (centres undefined) do in these assays?
ugtP null kill: 13; Sa RN4220 lethal: 10; PrP UTR inh: -15; Bead autofluor: 8333; BJeLR lethal: -6; Mtb hypoxia rep: 7; Mtb hypoxia rep growth: 2

What do the screens show for `Cc1[nH]n(C(N)=S)c(=O)c1N=Nc1ccc(S(=O)(=O)N2CCCCCC2)cc1`?
ugtP null kill: -3; Sa RN4220 lethal: 6.5; PrP UTR inh: -31; Bead autofluor: 21910*; BJeLR lethal: -4; Mtb hypoxia rep: 8; Mtb hypoxia rep growth: 8

Results for Cc1cc(C(=O)Nc2nncs2)oc1C ?
ugtP null kill: 10; Sa RN4220 lethal: 5.5; PrP UTR inh: -40; Bead autofluor: 4357; BJeLR lethal: 2; Mtb hypoxia rep: -5; Mtb hypoxia rep growth: 3

How did O=C1C(Cl)=C(N2CCCCCC2)C(=O)N1c1ccccc1Cl do in these assays?
ugtP null kill: 1; Sa RN4220 lethal: 1.0; PrP UTR inh: -14; Bead autofluor: 3749; BJeLR lethal: 0; Mtb hypoxia rep: 1; Mtb hypoxia rep growth: -2

Results for CNc1ncc(C(=O)c2ccc(Cl)cc2)s1 ?
ugtP null kill: 2; Sa RN4220 lethal: 9.9; PrP UTR inh: -53; Bead autofluor: 9543; BJeLR lethal: 6; Mtb hypoxia rep: 6; Mtb hypoxia rep growth: 3

Results for O=C(NN=Cc1cccnc1)c1cccc(Br)c1 ?
ugtP null kill: 0; Sa RN4220 lethal: -3.7; Mtb hypoxia rep: -4; Mtb hypoxia rep growth: 3

What do the screens show for `O=C(NNc1ccccc1[N+](=O)[O-])NC1CCCCC1`?
ugtP null kill: 12; Sa RN4220 lethal: 1.1; PrP UTR inh: -3; Bead autofluor: 2697; BJeLR lethal: 6; Mtb hypoxia rep: 12; Mtb hypoxia rep growth: -1

How did O=C(CSc1cccc[n+]1[O-])c1ccc(-c2ccccc2)cc1 do in these assays?
ugtP null kill: 10; Sa RN4220 lethal: 6.7; PrP UTR inh: -54; Bead autofluor: 3242; BJeLR lethal: -11; Mtb hypoxia rep: 11; Mtb hypoxia rep growth: 16

How did Cc1ccc(SCC(=O)N(C)C2CCS(=O)(=O)C2)cc1 (centres undefined) do in these assays?
ugtP null kill: 7; Sa RN4220 lethal: 3.8; PrP UTR inh: -8; Bead autofluor: 2556; BJeLR lethal: -4; Mtb hypoxia rep: 17; Mtb hypoxia rep growth: 12

What do the screens show for `CCOC(=O)C1(Cc2ccc(Cl)cc2)CCN(C(=O)c2sc(C)nc2C)CC1`?
ugtP null kill: 11; Sa RN4220 lethal: 2.3; PrP UTR inh: -18; Bead autofluor: 2507; BJeLR lethal: 6; Mtb hypoxia rep: 7; Mtb hypoxia rep growth: 2

How did NNC(=O)c1ccccc1OCCOc1ccccc1 do in these assays?
PrP UTR inh: 5; Bead autofluor: 4730; BJeLR lethal: 4

Results for CCCc1cc(=O)[nH]c(Nc2ccc3c(c2)OCCO3)n1 ?
ugtP null kill: -1; Sa RN4220 lethal: -1.6; PrP UTR inh: -14; Bead autofluor: 4911; BJeLR lethal: 1; Mtb hypoxia rep: -2; Mtb hypoxia rep growth: 1

Results for O=c1[nH]c(SCc2ccccc2Cl)nc2c1CCC2 ?
ugtP null kill: -4; Sa RN4220 lethal: 6.0; PrP UTR inh: -2; Bead autofluor: 23543*; BJeLR lethal: 6; Mtb hypoxia rep: 6; Mtb hypoxia rep growth: 13

What do the screens show for `Cc1cc(C)n(-c2nc(NCCCO)c3c4c(sc3n2)CCCC4)n1`?
ugtP null kill: -5; Sa RN4220 lethal: 1.0; PrP UTR inh: -18; Bead autofluor: 2542; BJeLR lethal: 5

How did Cc1[nH]c(=O)[nH]c(=O)c1/C=C/C(=O)OCC(C)C do in these assays?
ugtP null kill: -2; Sa RN4220 lethal: -4.2; PrP UTR inh: 8; Bead autofluor: 2055; BJeLR lethal: -6; Mtb hypoxia rep: 4; Mtb hypoxia rep growth: 0

What do the screens show for `CCCc1nnc(NC(=O)CSc2nnc(-c3ccco3)n2C)s1`?
ugtP null kill: 3; Sa RN4220 lethal: 2.1; PrP UTR inh: -14; Bead autofluor: 3401; BJeLR lethal: -4; Mtb hypoxia rep: -1; Mtb hypoxia rep growth: -1

What do the screens show for `CCOC(=O)CNC(=O)Cc1ccc(Cl)cc1`?
ugtP null kill: 5; Sa RN4220 lethal: 1.8; PrP UTR inh: -24; Bead autofluor: 4419; BJeLR lethal: -9; Mtb hypoxia rep: 8; Mtb hypoxia rep growth: 14

How did CSc1oc(-c2ccccc2)nc1S(=O)(=O)c1ccc(F)cc1 do in these assays?
ugtP null kill: -7; Sa RN4220 lethal: 5.6; PrP UTR inh: -13; Bead autofluor: 12630; BJeLR lethal: 0; Mtb hypoxia rep: 1; Mtb hypoxia rep growth: 7

Results for CCCOC(=O)c1c(NC(=O)/C=C/c2cnn(C)c2C)sc(C(=O)OC)c1C ?
ugtP null kill: -20; Sa RN4220 lethal: 5.4; PrP UTR inh: -45; Bead autofluor: 10090; BJeLR lethal: 0; Mtb hypoxia rep: 1; Mtb hypoxia rep growth: 5

How did CC(C)(Cc1ccc(O)cc1)NC(=O)CC(=O)NN=Cc1ccc([N+](=O)[O-])cc1 do in these assays?
ugtP null kill: 0; Sa RN4220 lethal: -3.2; Mtb hypoxia rep: -6; Mtb hypoxia rep growth: 0

2 compounds picked at random from the list so far:
What do the screens show for `Cc1[nH]n(C(N)=S)c(=O)c1N=Nc1ccc(S(=O)(=O)N2CCCCCC2)cc1`?
ugtP null kill: -3; Sa RN4220 lethal: 6.5; PrP UTR inh: -31; Bead autofluor: 21910*; BJeLR lethal: -4; Mtb hypoxia rep: 8; Mtb hypoxia rep growth: 8

What do the screens show for `Cc1cc(C)n(-c2nc(NCCCO)c3c4c(sc3n2)CCCC4)n1`?
ugtP null kill: -5; Sa RN4220 lethal: 1.0; PrP UTR inh: -18; Bead autofluor: 2542; BJeLR lethal: 5
